TDP1 block: TDP1 (human) enzyme inhibition. 0.28% of 350,000 active. Potency, µM (highest dose often 130 µM), for inactives: at the top dose activity change, negative = inhibition, hits mostly inhibitors. recombinant TDP1, AlphaScreen DNA substrate cleavage. Q9NUW8; note: nearly all actives have a fitted effect of over 40% in size
Target sequence (Q9NUW8 whole entry, looked up): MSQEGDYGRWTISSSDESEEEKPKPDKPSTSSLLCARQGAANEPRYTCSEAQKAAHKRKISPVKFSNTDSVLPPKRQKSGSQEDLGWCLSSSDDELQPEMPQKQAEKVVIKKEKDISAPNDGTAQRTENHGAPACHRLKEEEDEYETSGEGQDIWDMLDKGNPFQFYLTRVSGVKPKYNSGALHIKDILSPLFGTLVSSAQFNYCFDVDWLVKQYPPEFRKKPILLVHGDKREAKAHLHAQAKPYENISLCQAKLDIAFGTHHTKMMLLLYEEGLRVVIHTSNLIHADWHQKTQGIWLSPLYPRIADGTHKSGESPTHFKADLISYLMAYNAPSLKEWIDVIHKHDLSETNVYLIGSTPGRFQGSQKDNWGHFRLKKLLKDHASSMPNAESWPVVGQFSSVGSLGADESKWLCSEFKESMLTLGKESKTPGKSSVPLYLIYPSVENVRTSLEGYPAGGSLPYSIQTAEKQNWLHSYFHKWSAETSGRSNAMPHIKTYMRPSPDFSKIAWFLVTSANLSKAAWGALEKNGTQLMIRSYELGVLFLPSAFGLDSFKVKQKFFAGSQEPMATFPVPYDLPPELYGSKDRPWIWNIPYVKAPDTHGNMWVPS
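Enzyme-compound mixtures sat 15 min at room temperature, followed by a 5 min reaction with 15 nM final substrate and 10 min with AlphaScreen beads. Recombinant human Tdp1 was used at 1 nM final.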
FEN1 inh: inhibitors of human flap endonuclease 1. P39748. Recombinant FEN1 flap cleavage, fluorescence, 15 min. 0.35% of 390,000 active. Potency, µM (series often up to 114 µM), inactives show top-dose activity change, negative = inhibition, actives largely listed as inhibitors. AID 588795; note: nearly all actives have a fitted effect of over 65% in size
Target sequence (P39748 whole entry, looked up): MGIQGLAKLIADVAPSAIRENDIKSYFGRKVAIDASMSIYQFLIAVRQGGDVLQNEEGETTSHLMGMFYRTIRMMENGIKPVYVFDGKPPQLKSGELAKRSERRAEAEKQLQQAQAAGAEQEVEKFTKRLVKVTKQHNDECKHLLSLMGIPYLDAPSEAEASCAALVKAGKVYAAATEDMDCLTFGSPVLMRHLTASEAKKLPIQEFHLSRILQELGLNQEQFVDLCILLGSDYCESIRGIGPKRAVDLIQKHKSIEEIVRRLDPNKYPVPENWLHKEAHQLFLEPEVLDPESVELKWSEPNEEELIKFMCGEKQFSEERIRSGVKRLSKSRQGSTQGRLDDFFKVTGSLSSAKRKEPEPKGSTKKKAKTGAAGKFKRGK
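Steps: FEN1 (10 nM) dispensed; compound added by pin tool; 15 min at room temperature; substrate added to 50 nM final; reads at 0 min and 15 min; data normalized and fitted (four-parameter Hill).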
* marks the source's active call; other numbers are inactive results; / = no result given; & = joins results of further samples; [ ] = dose if it differs, or a comment. Calls come from the whole dose curve; as a rule, active = well fitted inhibition curve with a large enough effect; inconclusive = small, poorly fitted or top-dose-only effect; inactive = no such curve, though single readings can be large or run the other way. % is set by controls: 0 for no effect and ±100 for the full control effect; potency is the fitted concentration of half-maximal effect.

SMILES	TDP1 block	FEN1 inh
CCN(CC)C(=O)C1CCCN(C(=O)CCn2nnnc2CN2CCOCC2)C1 (centres undefined)	1%	-1%
CN(Cc1c(C(=O)N2CCCCCCC2)nc2ccc(Cl)cn12)C1CCOC1 (centres undefined)	5%	1%
Cc1ccc(NS(=O)(=O)c2cccc3nsnc23)cc1[N+](=O)[O-]	/	-19%
CCCCOC(=O)C1CCCC(C)N1 (centres undefined)	-4%	-2%
O=C(Nc1cccc(Cl)c1)c1ccc(OC(=S)N2CCOCC2)cc1	-5%	-6%
COc1ccccc1C(=O)NNS(=O)(=O)c1ccc(F)cc1	/	-1%
COc1ccc2c(c1)CCc1c(C(=O)NCc3ccc(Cl)cc3)noc1-2	0%	-11%
CCCCN(C(=O)c1cccc(S(=O)(=O)N2CCN(C)CC2)c1)c1c(N)n(CCCC)c(=O)[nH]c1=O	/	4%
CCOC(=O)C1CCCCN1Cc1cccc(OCc2ccccc2)c1 (centres undefined)	-6%	7%
COC(=O)c1ccc2nc(NC(=O)C3CC3)sc2c1	1%	-11%
CCC(C)(CC(=O)Nc1nccs1)c1ccccc1 (centres undefined)	/	-3%
O=C1Nc2ccccc2OCc2c1cccc2[N+](=O)[O-]	-2%	0%
Cc1ccc(C(=O)NNC(=O)c2ccoc2C)s1	-12%	14%
CCCC(=O)Nc1cc(=O)n(C)c(=O)n1C	-4%	-2%
Cn1nccc1NC(=O)CC1(CC(=O)O)CCCCC1	3%	2%
COCCOC1CCN(C(=O)c2cc(COc3ccc(F)cc3F)on2)CC1	4%	-2%
O=C(c1cc(-c2cccs2)nc2ccccc12)N1CCN(S(=O)(=O)c2cccc(F)c2)CC1	0%	-3%
O=S(=O)(Nc1nnc(C2CC2)s1)c1ccccc1	/	-3%
CCN(CC)CCC(=O)N1c2ccccc2CCc2ccc(NC(=O)OC)cc21	/	1%
Cc1onc(-c2ccccc2Cl)c1C(=O)Nc1ccccc1C(=O)NC(C)C	0%	-6%

Brought forward from above: 2 entries; new compounds follow.
SMILES	TDP1 block	FEN1 inh
CCN(CC)CCC(=O)N1c2ccccc2CCc2ccc(NC(=O)OC)cc21	/	1%
Cc1onc(-c2ccccc2Cl)c1C(=O)Nc1ccccc1C(=O)NC(C)C	0%	-6%
COC(=O)COc1ccc(NC(=O)C2CCCO2)cc1 (centres undefined)	-2%	2%
COC(C[C@H]1O[C@H]1[C@@H](O)[C@@H](C)OCc1ccccc1)OC	1%	-3%
Cc1nnc(NC(=O)C(C)Sc2nnc(-c3ccco3)n2C)s1 (centres undefined)	/	2%
Cc1cccc(C(=O)N[C@H](C(=O)OCc2cc(=O)n3c(n2)sc2ccccc23)C(C)C)c1	/	-19%
Cc1ccc[n+](C(C)C(=O)c2ccc(Cl)cc2)c1 (centres undefined)	3%	23%
Cc1ccc(N(C(=O)Cc2cccs2)C(C(=O)NC2CCCC2)c2ccncc2)cc1 (centres undefined)	-1%	-3%
CCCCn1c(N)c(N(CCOC)C(=O)c2cc(C)oc2C)c(=O)[nH]c1=O	6%	8%
COc1ccc(CNC(=O)c2c(O)c3ccccc3n(C)c2=O)cc1	/	0%
Cc1c(NS(=O)(=O)c2ccc(N=NN(C)C)cc2)c(=O)n(-c2ccccc2)n1C	/	11%
O=C(NCc1ccco1)c1scc2c1OCCO2	-2%	-9%
CCOc1ccc(CC(=O)N2CCN(c3ccc(N4CCOCC4)nn3)CC2)cc1OCC	8%	18%
COc1ccc(C(=O)Nc2cc(C)on2)cc1[N+](=O)[O-]	5%	8%
CC(C)CNS(=O)(=O)c1ccc(CCC(=O)N2CCN(Cc3ccccc3)CC2)cc1	7%	-6%
Cc1ccc(NC(=O)c2cccc(S(=O)(=O)N3CCN(c4ccccc4)CC3)c2)nc1	-8%[0.505 µM]	7%
CCOC(=O)C1CN(S(=O)(=O)c2ccc(OC)cc2)c2ccccc2O1 (centres undefined)	/	-2%
Cc1ccc(S(=O)(=O)CCC(=O)c2ccc(O)cc2O)cc1	1%	2%
COc1ccc(N2CCN(C(=O)c3cccs3)CC2)cc1	7%	2%
NS(=O)(=O)c1ccc(CCNC(=O)c2ccco2)cc1	0%	-2%
COc1ccc(OC)c(NC(=O)CSc2nnc3ccc(-c4ccccn4)nn23)c1	-10%	-2%
O=C(CN1CCCC1)Nc1ccc([N+](=O)[O-])cc1	3%	-5%

An excerpt from above in order of count of non-hydrogen atoms, low to high.
SMILES	TDP1 block	FEN1 inh
O=C(NCc1ccco1)c1scc2c1OCCO2	-2%	-9%
COc1ccc(C(=O)Nc2cc(C)on2)cc1[N+](=O)[O-]	5%	8%
COC(C[C@H]1O[C@H]1[C@@H](O)[C@@H](C)OCc1ccccc1)OC	1%	-3%
Cc1ccc(S(=O)(=O)CCC(=O)c2ccc(O)cc2O)cc1	1%	2%
Cc1nnc(NC(=O)C(C)Sc2nnc(-c3ccco3)n2C)s1 (centres undefined)	/	2%
COc1ccc(CNC(=O)c2c(O)c3ccccc3n(C)c2=O)cc1	/	0%
CCOC(=O)C1CN(S(=O)(=O)c2ccc(OC)cc2)c2ccccc2O1 (centres undefined)	/	-2%
CCCCn1c(N)c(N(CCOC)C(=O)c2cc(C)oc2C)c(=O)[nH]c1=O	6%	8%
Cc1c(NS(=O)(=O)c2ccc(N=NN(C)C)cc2)c(=O)n(-c2ccccc2)n1C	/	11%
COc1ccc(OC)c(NC(=O)CSc2nnc3ccc(-c4ccccn4)nn23)c1	-10%	-2%
Cc1ccc(NC(=O)c2cccc(S(=O)(=O)N3CCN(c4ccccc4)CC3)c2)nc1	-8%[0.505 µM]	7%
Cc1cccc(C(=O)N[C@H](C(=O)OCc2cc(=O)n3c(n2)sc2ccccc23)C(C)C)c1	/	-19%
CCOc1ccc(CC(=O)N2CCN(c3ccc(N4CCOCC4)nn3)CC2)cc1OCC	8%	18%

Other compounds
SMILES	TDP1 block	FEN1 inh
Nc1c(C(=O)O)sc2nc(-c3ccccc3)c3c(c12)CCCC3	1%	-14%
Cc1ccc2[nH]c(=O)c(CN(CCCN(C)C)C(=O)Nc3cccc(Cl)c3)cc2c1	1%	0%
CCc1ccccc1NC(=O)CSc1nnc(Cn2nnc3ccccc32)n1C	1%[56.1 µM]	-4%
Cn1c(C2=C(O)CN(c3ccccc3)C2=N)nc2ccccc21	7%	0%
CCCCNC(=O)CCCCC(=O)N/N=C/c1cccc(Cl)c1	8%	-2%
COc1ccccc1NC(=S)N1CCC(NC(=O)NC23CC4CC(CC(C4)C2)C3)CC1	2%	-18%
CCOc1ccccc1NC(=O)CSc1nc2[nH]ncc2c(=O)[nH]1	1%	3%
CN(C(=O)c1cncc(Br)c1)c1c(N)n(Cc2ccccc2)c(=O)[nH]c1=O	5%[0.505 µM]	-8%
COc1ccc(C(Nc2ccccn2)c2c(NC(=O)c3ccco3)sc(C)c2C)cc1 (centres undefined)	5%	4%
COc1ccc(NC(=O)CCNS(=O)(=O)c2cc(Br)cnc2N)cc1OC	1%	-6%
C=CCNC(=S)N1CCC(C(=O)c2ccc(F)cc2)CC1	2%	8%
CCc1ccc(C(=O)NC(=S)NCc2cccnc2)cc1	3%	9%
CCN(C(=O)COC(=O)c1cc(=O)c2ccccc2o1)c1c(N)n(Cc2ccccc2)c(=O)[nH]c1=O	/	5%
Cc1cc(C)c(NC(=O)COC(=O)C2CCN(c3ccc(C(F)(F)F)cn3)CC2)c(Cl)c1	-6%	-10%
O=C(Nc1ccnc(-c2cccnc2)n1)c1ccccc1Cl	1%	2%
COc1cccc(C(=O)CN2CCN(S(=O)(=O)c3ccc(Br)cc3)CC2)c1	5%	-1%
CCc1ccc(NC(=O)Cn2cnc3sc(C)c(S(=O)(=O)N4CCOCC4)c3c2=O)cc1	4%	-6%
O=C(N/N=C/c1cccs1)C(O)c1ccccc1 (centres undefined)	/	-10%
Cc1cc(N/N=C/c2ccc(O)cc2O)nc(-c2ccccc2O)n1	1%	-4%
CCOc1ccc(NC(C)=O)cc1[N+](=O)[O-]	2%	4%
Cc1cnc(C(=O)Nc2cccc3cccnc23)cn1	7%	4%
COc1cccc(CNC(=O)CCC2CCCN(C(=O)CCc3c(C)noc3C)C2)c1 (centres undefined)	/	8%
Cc1ccccc1NC(=O)Cn1c(=O)oc2ccccc21	2%	26%
O=C1C2C3C=CC(C3)C2C(=O)N1c1cccc2ccccc12 (centres undefined)	/	-7%
Cc1ccc(-n2nc3c(c2NC(=O)c2ccc4c(c2)OCO4)CS(=O)(=O)C3)cc1C	1%	-8%
CC1CCN(CC(=O)c2c[nH]c3ccccc23)CC1	5%	1%
Cc1ccc(NC(=O)COC(=O)Cc2csc(-c3cccc(F)c3)n2)cc1C	8%	-18%
COc1ccc(OC)c(NC(=O)CC(NCCC2=CCCCC2)C(=O)O)c1 (centres undefined)	7%	/
O=[N+]([O-])c1ccc(NCCCN2CCOCC2)c(Cl)c1	1%	-12%
Cn1c(Cn2c(=O)sc3ccccc32)nnc1SCC(=O)N1CCN(c2ccccc2)CC1	3%	-17%
CN(CCO)S(=O)(=O)c1ccc2c(c1)C(=NNC(N)=O)c1cc(S(=O)(=O)N(C)CCO)ccc1-2	3%	-22%
Cc1ccccc1NC(=O)CSc1ccc(-c2ccc(-n3cccn3)cc2)nn1	/	-6%
Cc1ccccc1NC(=O)NNC(=O)CCc1ccccc1	3%[56.1 µM]	-1%
CCN(Cc1ccc(O)cc1)CC1CCCN(CCc2cccc(F)c2)C1 (centres undefined)	/	3%
COc1cc(OC)cc(C(=O)Nc2nc3ccccc3[nH]2)c1	7%	-3%
CC1(C)CC(=O)C(Sc2ccc(Br)cc2)=C(O)C1	0%	3%
Cc1cc(S(=O)(=O)n2[nH]c(=O)c(CCO)c2C)c(Cl)cc1Cl	1%	-3%
O=C(c1ccc([N+](=O)[O-])cc1)N(Cc1ccc(Cl)cc1Cl)N1C(=O)CCCC1=O	7%	-9%
Cc1cc(Cl)ccc1OCC(=O)OCC(=O)Nc1ccc(F)c([N+](=O)[O-])c1	-3%	10%
COC(=O)[C@H](C)NC(=O)Nc1cccc(Br)c1	-3%	16%
COC(=O)c1nc2n(n1)C(c1ccccc1OC)C1=C(CCCC1=O)N2 (centres undefined)	-5%	1%
CC1(C)NC(=O)N(CC(=O)OCC(=O)Nc2sccc2C#N)C1=O	3%	-7%
Cc1cc(-c2onc(C)c2C(=O)Nc2ccc(C(F)(F)F)cc2)no1	-4%	2%
CC(Sc1ncnc2c1cnn2-c1ccccc1)C(=O)NCC1CCCO1 (centres undefined)	5%	-8%
O=C(NNC(=O)[C@@H]1CCCC[C@@H]1C(=O)O)Nc1ccccc1	-3%	4%
COc1ccc(NC(=O)CSc2nc(O)cc(=O)n2-c2ccc(OC)cc2)cc1	5%	11%
O=C(O)CS(=O)(=O)CC(=O)O	-1%	8%
NCCS	17%&18%&11%	-18%
CCOc1cc(-c2nc(-c3ccc(OC)cc3)no2)cc(OCC)c1OCC	-2%	3%
O=C(c1ccccc1)c1cccc(NC(=O)c2ccc(Br)o2)c1	5%	8%
(listing goes on)
SMILES	TDP1 block	FEN1 inh
Cc1noc(C)c1C(=O)N1CCC(CO)(Cc2ccccc2)CC1	3%	-5%
CCCCOC(=O)C1CCC[C@@H](C)N1 (some centres undefined)	5%	9%
COCCCNc1nc2nonc2nc1N1CCN(C2CCCC2)CC1	-5%	17%
Cc1c(C(=O)NC2CC2)oc2ccc(S(=O)(=O)N3CCCCCC3)cc12	2%	-1%
O=C(COC(=O)/C=C/c1ccccc1)NCCNC(=O)COC(=O)/C=C/c1ccccc1	0%	13%
COc1cccc(-c2nc3ccccc3c(=O)n2NC(=O)c2cccnc2Cl)c1	0%	23%
COc1ccc(S(=O)(=O)n2nc(C)c(S(=O)(=O)N3CCOCC3)c2C)cc1	5%	16%
C/C(=N\NC(=O)COc1ccc(C(C)(C)C)cc1)c1ccccc1	1%	-17%
CCN(CCO)C(=O)CC1C(=O)NCCN1Cc1c(F)cccc1Cl (centres undefined)	3%	6%
C/C(N)=C(/C#N)C(=O)COC(=O)[C@@H](NC(=O)c1ccccc1Cl)C(C)C	5%	-3%
C/C=C\C=C\C(=O)Nc1cccc(C2=NOC3(C2)C[C@@H](C(N)=O)N(C(=O)C(c2ccccc2)c2ccccc2)C3)c1 (some centres undefined)	2%	9%
CN=C1SC(CC(=O)Nc2ccccc2F)C(=O)N1/N=C/c1ccc(O)c(OC)c1 (centres undefined)	8%	4%
CCOC(=O)C1C(=O)C=C(c2cccs2)CC1c1ccccc1C (centres undefined)	0%	-3%
COc1cccc(CNC(=O)Cn2ccc3cc(S(=O)(=O)N4CCCC4)ccc32)c1	5%&-1%	13%&15%
COC(=O)c1ccccc1NC(=O)CSc1nnc(C(CO)NC(=O)c2ccccc2)n1C (centres undefined)	2%	-2%
O=C(CCNS(=O)(=O)c1cccc2nonc12)NCc1cccs1	8%	7%
Cc1nn(-c2ncc(C(F)(F)F)cc2Cl)c(=O)n1-c1c(F)cccc1F	4%	21%
COC(C[C@H]1O[C@@H]1[C@@H](O)[C@H](C)OCc1ccccc1)OC	0%	-5%
Cc1ccc([N+](=O)[O-])cc1-c1ccc2cccc(C)c2n1	3%	-9%
COCC(=O)NC1CC(C)(C)Cc2c1cnn2-c1ccc(F)cc1 (centres undefined)	2%	12%
N#Cc1cccnc1N1CCC(C(N)=O)CC1	8%	20%
CS(=O)(=O)N1CCC(C(=O)c2cccc(Cl)c2)CC1	4%	-7%
Cc1[nH]nc(N=CC2=C(O)CC(c3ccco3)CC2=O)c1-c1ccccc1 (centres undefined)	-5%	1%&-11%
C1CCC(n2nnnc2CN2CCN(C3CCCC3)CC2)CC1	1%	-2%

An excerpt; most or all hits stand in other tables.
